PV pol inh: poliovirus RNA polymerase inhibition; P03300; % elongation, % (compound at 16.7 µg/mL); 150,000 tested, 0.66% active; poliovirus polymerase elongation, fluorescence polarization; stronger effect = lower value; in the data active = % elongation below about 90%; also: some results filed as inactive read as strong as hits
Target sequence (P03300 1749-2209 limits assumed): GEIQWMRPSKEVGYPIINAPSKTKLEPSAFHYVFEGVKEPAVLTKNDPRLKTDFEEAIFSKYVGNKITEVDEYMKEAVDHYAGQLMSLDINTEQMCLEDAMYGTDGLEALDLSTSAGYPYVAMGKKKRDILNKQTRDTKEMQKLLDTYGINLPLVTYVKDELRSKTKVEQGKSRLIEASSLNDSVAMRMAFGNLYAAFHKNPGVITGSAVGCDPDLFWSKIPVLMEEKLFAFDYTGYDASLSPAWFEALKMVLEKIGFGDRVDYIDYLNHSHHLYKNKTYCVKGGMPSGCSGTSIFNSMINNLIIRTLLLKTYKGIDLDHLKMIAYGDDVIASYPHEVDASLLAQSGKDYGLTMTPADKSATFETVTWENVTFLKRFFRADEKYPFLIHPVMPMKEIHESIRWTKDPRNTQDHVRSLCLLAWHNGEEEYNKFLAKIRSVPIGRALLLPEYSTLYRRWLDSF
MenB inh: inhibitors of Mycobacterium tuberculosis MenB enzyme. MenB enzyme assay, absorbance read-out; some hits fall short of the stated cut. inhibition, %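 (about 12 µg/mL by stock and volumes)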. 100,000 tested, 0.43% active. AID 540299;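 active = mean of two replicates above 30%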;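 also: 0% = no compound and 100% = wells with inactive enzyme; the first replicate is given; strong numbers were not always called active; inactives centre near -10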
MbtI inh: blocks the Mycobacterium tuberculosis siderophore enzyme MbtI | purified MbtI enzyme, fluorescence intensity read-out | inhibition, %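 (about 17 µg/mL by stock and volumes)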 | 100,000 tested, 0.89% active;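 active = above 50% in both replicates, above 80% if mildly self-fluorescent; inactive = the rest, strongly fluorescent compounds included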;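 also: 0% = mean of negative and 100% = mean of positive controls; one replicate is shown; some compounds called inactive have numbers as strong as hits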
Target sequence (P9WFX0 whole entry, looked up): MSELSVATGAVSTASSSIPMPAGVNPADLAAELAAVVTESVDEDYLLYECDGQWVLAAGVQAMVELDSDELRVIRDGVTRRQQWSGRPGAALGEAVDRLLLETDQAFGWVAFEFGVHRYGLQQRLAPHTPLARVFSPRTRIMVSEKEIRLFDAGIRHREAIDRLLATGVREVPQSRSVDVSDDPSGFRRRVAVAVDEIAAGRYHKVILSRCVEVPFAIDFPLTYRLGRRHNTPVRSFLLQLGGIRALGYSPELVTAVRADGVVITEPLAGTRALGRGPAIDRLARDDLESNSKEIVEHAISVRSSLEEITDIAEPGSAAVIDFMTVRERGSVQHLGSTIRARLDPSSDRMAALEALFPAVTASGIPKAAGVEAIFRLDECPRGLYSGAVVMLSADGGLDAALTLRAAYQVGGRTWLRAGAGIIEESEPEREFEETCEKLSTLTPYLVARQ
PV pol inh intensity: further read-out of PV pol inh, marked with its call; % elongation; measured here: total intensity read-out; formula for this scale not given here;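 total fluorescence in place of polarization; lower means less elongation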
* marks the source's active call; other numbers are inactive results; i = inactive; / = no result given; & = joins results of further samples.

SMILES	PV pol inh	PV pol inh intensity	MenB inh	MbtI inh
NNC(=O)c1ccc2[nH]c3c(c2c1)CCCC3	102	102	-7	-24
Cc1ccc(CS(=O)Cc2ccc(C(=O)N3CCN(c4ccccc4)CC3)o2)cc1 (stereo not drawn)	101	102	-1	-15
CCOC(=O)CN1C=NS(=O)(=O)c2ccccc21	100	101	12	1
O=C(Nc1cccnc1)c1c2c(nc3ccccc13)C(=O)N(C1CCCCC1)C2	99	101	-8	7
C=CCOc1ccccc1CNc1ccc(C)cc1	100	104	-37	-124
CCCCC1CCC(C(=O)O)CC1 (stereo not drawn)	101	103	/	-7
CCN1C(=O)NC(c2ccc(Cl)cc2)C2=C1CCCC2=O (stereo not drawn)	98	102	4	11
COc1ccc(OCC2c3cc(OC)c(OC)cc3CCN2C(=O)C(C)C)cc1 (stereo not drawn)	101	103	-8	6
O=C(Nc1nc(-c2ccc3c(c2)CCN3C(=O)C2CCCCC2)cs1)c1ccco1	96	131	11	22
CCCCNC(=O)c1cn(C)c(=O)c2cc(OC)c(OC)cc12	101	103	-12	-3
Cc1cc(NCCO)n2c(nc3ccccc32)c1C#N	101	100	-25	-35
O=C(Cc1ccccc1)Nc1ccc(N2CCOCC2)c(C(=O)O)c1	104	94	4	/
COc1cc(NC(=O)COn2nnc3ccc(S(C)(=O)=O)cc32)cc(OC)c1	96	97	-1	-17
Cc1cnc(C(=O)OCc2ccc(COC(=O)c3cnc(C)cn3)cc2)cn1	98	103	11	-1
CCNc1nc(N)c(C(=O)c2ccc(F)cc2)s1	102	103	3	-2
S=CC1=C2NCCCN2C2CCCCC12 (stereo not drawn)	104	95	-34	/
CC1(C)CC2CC(C)(CN2Cc2c(O)ccc3cc(-c4ccccn4)c(=O)oc23)C1 (stereo not drawn)	95	107	-188	-37
CC1CCC2(CC1)Oc1ccccc1C1CC(c3ccco3)=NN12 (stereo not drawn)	105	113	0	13
COC(=O)/C(=C(/O)CSc1nnnn1-c1ccc(O)cc1)c1nc2ccccc2[nH]1	102	101	2	2
Cn1c(=O)oc2cc(S(=O)(=O)NC3CCCc4ccccc43)ccc21 (stereo not drawn)	100	102	-7	0

Retrieved one by one from the entries so far:
SMILES	PV pol inh	PV pol inh intensity	MenB inh	MbtI inh
NNC(=O)c1ccc2[nH]c3c(c2c1)CCCC3	102	102	-7	-24
COc1ccc(OCC2c3cc(OC)c(OC)cc3CCN2C(=O)C(C)C)cc1 (stereo not drawn)	101	103	-8	6

A draw from above in order of SMILES length, rising:
SMILES	PV pol inh	PV pol inh intensity	MenB inh	MbtI inh
CCCCC1CCC(C(=O)O)CC1 (stereo not drawn)	101	103	/	-7
O=C(Cc1ccccc1)Nc1ccc(N2CCOCC2)c(C(=O)O)c1	104	94	4	/
Cc1cnc(C(=O)OCc2ccc(COC(=O)c3cnc(C)cn3)cc2)cn1	98	103	11	-1
O=C(Nc1cccnc1)c1c2c(nc3ccccc13)C(=O)N(C1CCCCC1)C2	99	101	-8	7
O=C(Nc1nc(-c2ccc3c(c2)CCN3C(=O)C2CCCCC2)cs1)c1ccco1	96	131	11	22
CC1(C)CC2CC(C)(CN2Cc2c(O)ccc3cc(-c4ccccn4)c(=O)oc23)C1 (stereo not drawn)	95	107	-188	-37

(more compounds)
SMILES	PV pol inh	PV pol inh intensity	MenB inh	MbtI inh
COC(=O)C1=C(N)n2c(s/c(=C/c3ccncc3)c2=O)=C(C(=O)OC)C1c1ccncc1 (stereo not drawn)	100	102	0	-7
CCCCC(NC1CCS(=O)(=O)C1)C(=O)O (stereo not drawn)	100	103	2	-4
Cc1ccccc1NC(=O)CCC(=O)O	102	97	11	9
CCC1CCCCN1P(=O)(c1ccc(C)o1)C(C)(C)C (stereo not drawn)	103	108	-15	4
N#C/C(=C\c1ccccc1/C=C(\C#N)c1ccc2c(c1)OCO2)c1ccc2c(c1)OCO2	110	123	-6	/
CC(=O)Nc1sc(C)c(C)c1CN1CCN(S(=O)(=O)c2ccccc2)CC1	100	107	-8	2
Cc1cccc(OCC(=O)NCCc2ccccn2)c1	97	107	-11	-10
OCCNc1ccc(Cl)cc1	104	102	1	-5
COc1ccccc1NC(=O)c1ccc(C)o1	100	101	12	17
CCC(C)(C)C1CCC(=O)C(C2(O)C(=O)N(C)c3ccccc32)C1 (stereo not drawn)	101	101	-22	-5
O=C(CCC(=O)N1CCc2ccccc21)N1CCc2ccccc21	104	103	2	-9
CCn1c2c(c3cc(Br)ccc31)CCCC2=O	104	109	1	/
CC(OC(=O)c1cccnc1)C(=O)Nc1ccc(Br)cc1 (stereo not drawn)	102	98	-26	-2
O=S1(=O)N=C(SCCO)c2ccccc21	102	100	-8	-20
NC1CCSc2ccccc21 (stereo not drawn)	102	101	-45	0
CCCCC/C=C\C/C=C\C/C=C\C=C\[C@@H](O)CCCC(=O)O	101&101	101&100	-7	-21
N#CCCN(CC1CCCO1)C(=S)Nc1ccc(F)cc1 (stereo not drawn)	105	101	-16	-11
CCOC(=O)c1c(-c2ccccc2)n(C)c2ccc(O)cc12	100	99	8	i
O=c1c2cccc3c2c(nn1CCN1CCCCC1)-c1ccccc1-3	96	86	-2	1
CC(C)CCNC(=O)c1cc(-c2ccccn2)nc2ccccc12	100	104	-18	-1
CSC1=NC(C)(C)CCC12C=CC(=O)C=C2	101	99	-4	26
Cc1n[nH]c(=O)c2nc(-c3ccccc3)sc12	98	98	-2	-37
O=C(Cc1cccs1)Nc1ccc2c(c1)OCCO2	104	104	/	-15
S=c1nc(C23CC4CC(CC(C4)C2)C3)[nH][nH]1	97	106	-14	45
NC(=O)COc1ccc(S(=O)(=O)N2CCCC2)cc1Cl	100	102	4	-14
O=C1CN(C(=O)C2CC2)c2ccccc2N1	100	98	-16	-3
CCCCCCCCCCCCC/C=C/[C@@H](O)[C@H](CO)N(C)C	101&101	102&101	5	-7
CCOC(=O)N1CCN(C(=O)C2CCN(c3nc4ccc(CC)cc4s3)CC2)CC1	101	103	-36	-2
O=C(CC1C(=O)NCCN1C(=O)c1ccccc1)Nc1cccc(Cl)c1 (stereo not drawn)	105	104	-14	1
CCC(=O)Nc1ccccc1C(=O)OCC(=O)c1ccccc1	100	101	-25	-10
COc1ccc(C(=O)N[C@H](C(=O)N(C)Cc2ccc(N3CCCCC3)cc2)C(C)C)cc1	102	97	-8	3
COc1ccccc1/C=C/C(=O)OCC(=O)Nc1ccccc1C(C)C	100	98	/	101
CC1=NOC(=O)/C1=C\C=C/c1ccccc1	111	111	-26	29
CC1Cn2c(C(=O)N3CCc4ccccc4C3)cc3c(Cl)ccc(c32)O1 (stereo not drawn)	104	102	-13	-6
O=C(O)C1C2C=CC(C2)C1C(=O)N1CCc2c([nH]c3ccccc23)C1C(F)(F)F (stereo not drawn)	105	112	-10	-8
O=C(CSC1=NCCS1)N1CCN(c2ccc(Cl)cc2)CC1	101	101	-25	1
CN1CCN(c2c(C(=O)c3ccccc3)cnc3ccc(Cl)cc23)CC1	99	101	5	1
CCc1ccccc1NC(=O)c1ccc2nc(N3CCC(C)CC3)sc2c1	102	100	-15	-7
NC(=O)c1ccc(NC(=O)CSc2nc3ccccc3[nH]2)cc1	100	100	/	25
O=C(Oc1ccc(-c2nnco2)cc1)c1ccc2c(c1)S(=O)(=O)c1ccccc1C2=O	104	109	-5	-31
O=C(Cc1ccsc1)NCC1COc2ccccc2O1 (stereo not drawn)	103	96	1	13
CS(=O)(=O)NCCS(=O)(=O)N1CCN(c2ccccc2)CC1	103	99	-19	-5
COc1ccc(CCNC(C)C(=O)Nc2ccc(S(N)(=O)=O)cc2)cc1 (stereo not drawn)	109	104	-17	-16
COC(=O)c1c(C)nn(-c2ccc(F)c(Cl)c2)c1-c1cc(C)on1	102	91	-18	18
O=c1[nH]c(O)c(C=Nc2nc3ccccc3nc2N2CCCC2)c(=O)[nH]1	102	180	-9	5
CCC(C)Nc1nc(NC)nc(NC(C)CC)n1 (stereo not drawn)	99	102	5	-5
O=C(C1CC(=O)N(C2CCCC2)C1)N1CCC(c2nc3ccccc3s2)CC1 (stereo not drawn)	107	112	-28	1
CC(C)CSc1nnc2sc3ccccc3n12	101	105	8	3
O=C(CSc1nnc2[nH]c(=O)ccn12)N1CCc2ccccc21	97	102	-8	1
COC(=O)c1cc(=O)[nH]c(=S)[nH]1	81*	78*	-29	88*
O=C(/C=c1\[nH]c(=O)/c(=C/c2cccnc2)s1)c1ccc(Cl)cc1	102	99	-27	-3
CC1CCC(NC(=O)CCn2c(=O)c3cccn3c3cccnc32)CC1 (stereo not drawn)	105	106	-6	-2
C=CCNC(=S)Nn1c(-c2ccccc2)nc2ccc(I)cc2c1=O	100	102	-18	/
CCc1cccc(NS(=O)(=O)c2ccc3c(c2)CC(=O)N3)c1	101	105	-6	-5
CCOC(=O)c1ccc(Nc2ncnc3ccccc23)cc1	104	107	-27	0
CC(C)C[C@H]1C(=O)N2CCC[C@H]2[C@]2(O)O[C@](NC(=O)[C@@H]3C=C4c5cccc6[nH]c(Br)c(c56)C[C@H]4N(C)C3)(C(C)C)C(=O)N12	97	103	9	-1
O=C(CSc1c2c(nc3ccccc13)CCCC2)N1CCCc2ccccc21	100	108	11	-3
Cc1nn(-c2ccccc2)c(C)c1NC(=O)COC(=O)c1ccccc1	106	111	-32	-18
CC(C)Cn1c(NC(=O)Nc2ccccc2F)c2ccccc2nc1=O	103	107	-17	4
NC(=S)c1cc(-c2ccccc2)c(C(F)(F)F)s1	108	116	-26	-11

Not a retest: an excerpt of the list.
SMILES	PV pol inh	PV pol inh intensity	MenB inh	MbtI inh
O=C(Cc1ccsc1)NCC1COc2ccccc2O1 (stereo not drawn)	103	96	1	13
CS(=O)(=O)NCCS(=O)(=O)N1CCN(c2ccccc2)CC1	103	99	-19	-5
COc1ccc(CCNC(C)C(=O)Nc2ccc(S(N)(=O)=O)cc2)cc1 (stereo not drawn)	109	104	-17	-16
COC(=O)c1c(C)nn(-c2ccc(F)c(Cl)c2)c1-c1cc(C)on1	102	91	-18	18
O=c1[nH]c(O)c(C=Nc2nc3ccccc3nc2N2CCCC2)c(=O)[nH]1	102	180	-9	5

The list goes on.
SMILES	PV pol inh	PV pol inh intensity	MenB inh	MbtI inh
CC1(C)CC(N=Cc2c(O)[nH]c(=O)[nH]c2=O)CC(C)(C)N1	101	100	-9	1
CCOc1ccc(O)c(C=NC2CCCC2)c1	103	108	-16	-6
CN1c2ccsc2C(=O)/C(=C\N=S(C)(=O)c2ccc(Cl)cc2)S1(=O)=O (stereo not drawn)	102	104	-18	-4
COc1cc(C=Nc2cc(Cl)ccc2O)ccc1O	99	99	-40	49
C=CCNc1nc2ccccn2c(=O)c1/C=C1\SC(=S)N(C)C1=O	93	186	-20	10
Cc1ccc(C(=O)OC2CSC2)cc1	102	106	-23	/
COc1cccc(-c2nn(C)c3sc(C(=O)NCC4COc5ccccc5O4)cc23)c1 (stereo not drawn)	100	102	-11	54
CC(=O)Nc1ccc(C2C3=C(CCCC3=O)Nc3c2c(C)nn3-c2nc3ccccc3s2)cc1 (stereo not drawn)	106	99	15	-8
CC(C)(C)NC(=O)Oc1ccc(Cl)cc1	106	108	-13	-10
N#CC1=C(N)Oc2n[nH]c(CSc3ccccc3)c2C1Cc1ccccc1 (stereo not drawn)	104	103	-39	-8
O=C(CCNc1cccc(Cl)c1)c1ccco1	109	103	-15	/
CC(OC(=O)CN1C(=O)COc2ccccc21)C(=O)NCc1cccs1 (stereo not drawn)	103	101	-10	-1
CCCC(=O)Nc1ncnc2c1ncn2C1O[C@H]2COP(=O)(O)O[C@@H]2[C@@H]1OC(=O)CCC (stereo partly drawn)	101&101	101&99	10	4
CCCc1cc(=O)[nH]c(SCC(=O)c2cc(C)n(C)c2C)n1	98	97	-12	7
CNC(=O)COc1ccc(S(=O)(=O)N2CCOCC2)cc1C	104	102	-10	-13
CCN1C(=O)C(=Cc2ccc(OC(F)F)cc2)C(=O)N(CC)C1=S	101	102	-85	54*
CCOc1cc(CNCC(c2ccc(OC)cc2)N2CCCCC2)ccc1OC(C)C(=O)N(C)C (stereo not drawn)	99	100	49*	-11
CCC1=NN(C(=O)C(C)C)C(O)(C(F)(F)F)C1 (stereo not drawn)	100	102	14	-2
COc1ccc(C2C(C)C3(O)CC(C#N)(C(=O)N3)C2(C#N)C#N)cc1 (stereo not drawn)	104	109	3	/
COc1cccc(C(=O)Nc2cccc3c2C(=O)NC3=O)c1OC	102	107	-15	44
CCCNC(=O)c1cc(C)nn1-c1ccccc1	99	99	-2	11
O=C(COc1ccccc1C(=O)O)NCc1ccccc1	101	106	/	-8
COc1cccc(/C=N/c2c(-c3ccccc3)c(C(F)(F)F)nn2C)c1OC	98	107	-24	3
COc1ccc(OC)c(NC(=O)Cn2cnc3c(nnn3Cc3ccc(F)cc3)c2=O)c1	100	102	-15	-10
CN1CCN(c2ccc(NC(=O)Nc3ccc(C(F)(F)F)cc3)cc2)CC1	103	94	11	14
Cc1nc(C)c(/C(O)=C/c2nc3cc(Cl)ccc3oc2=O)o1	102	99	6	3
CC(O)CNc1ccc(C(F)(F)F)cn1 (stereo not drawn)	103	104	-20	-54
N=C1c2ccccc2CN1Nc1ncc(C(F)(F)F)cc1Cl	99	96	/	-3
CC1(C(=O)O)CCC(c2nc(N)n[nH]2)C1(C)C (stereo not drawn)	/	/	-10	-8
CCOC(=O)c1ccc(N2C(=N)S/C(=C\c3cnn(-c4ccccc4)c3)C2=O)cc1	104	102	-18	-9
O=C(O)CC1c2ccccc2CCN1S(=O)(=O)c1ccccc1 (stereo not drawn)	99	106	-4	7
Nc1cccc(-c2csc(N)n2)c1	100	103	-8	34
CN1CCN(c2ccc3nnc(CCC(=O)Nc4nccs4)n3n2)CC1	102	97	0	4

Random draw from the library; overall some 1.8% were active at least once.
